High-throughput results from PubChem.
Rce1 inhib: yeast Rce1p protease inhibitors, primary screen, biochemical, fluorescence, cell-free homogeneous; yeast membranes, quenched prenylated peptide cleavage fluorescence; calls only; 290,000 tested, 0.27% active; AID 2563, 2010;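 active = fall in fluorescence gain of 50% or more versus controls, with final raw signal at or below 3038400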;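 also: plate controls were neutral control wells for no effect and wells lacking membranes for full effect; tested at 10 µM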
Target sequence (Q03530 whole entry, looked up): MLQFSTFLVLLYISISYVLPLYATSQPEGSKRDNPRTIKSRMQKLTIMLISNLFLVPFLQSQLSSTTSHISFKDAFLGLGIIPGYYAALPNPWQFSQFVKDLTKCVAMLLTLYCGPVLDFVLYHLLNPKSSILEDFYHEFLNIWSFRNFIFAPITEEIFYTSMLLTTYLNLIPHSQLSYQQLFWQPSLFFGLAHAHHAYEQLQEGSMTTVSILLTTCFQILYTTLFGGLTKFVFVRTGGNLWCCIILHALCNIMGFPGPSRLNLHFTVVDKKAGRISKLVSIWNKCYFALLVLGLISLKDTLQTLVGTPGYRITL
UUG fidelity: modulators of yeast start codon fidelity, primary screen, whole organism, S. cerevisiae, single point, plate reader; 350,000 tested, 0.13% active; S. cerevisiae UUG-firefly luciferase reporter, luminescence/redox ratio; AID 602363, 2012; activity score, % at 18.7 µM;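 active = replicate mean at a twofold rise or more, about +100% in these data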;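 also: firefly luciferase made from a UUG start codon reports start codon fidelity; reporter light over untreated wells divided by growth signal over untreated wells; some hits fall short of that in this replicate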
Env fusion inh: inhibitors of HIV-1 Env-driven cell-cell fusion, primary screen, HeLa-JRFL effector, CEM21 target cells, luciferase | inhibition, % at 12.3 µM | 360,000 tested, 1.1% active | AID 651610, 2012;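 active = mean replicate inhibition score of at least 50 and every replicate individually at or above 50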;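 also: 0% = plate neutral controls and 100% = maraviroc near 300 nM; one replicate is shown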
PABP FP inh: PABP poly(A) RNA binding inhibitors, primary screen, biochemical, fluorescence polarization, uHTS; Polyadenylate-binding protein 1 (Homo sapiens), P11940; inhibition, % at 35 µM; 290,000 tested, 1% active; AID 2014, 2009;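 active = 50% or more with normal probe brightness, or confirmed in later tests; about a fifth of its hits are not listed in these tables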;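 also: calls also rest on retests at 20 µM and on dose response follow-up; controls were probe without protein and protein plus probe with vehicle; some compounds called inactive have numbers as strong as hits; many hits fall short of the cut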
MT1-MMP act inh: blockers of MT1-MMP proenzyme processing, primary screen, HT1080 RFP-PRO-GFP cells, GFP/RFP fluorescence | 360,000 tested, 0.061% active | Matrix metalloproteinase-14 (Homo sapiens), P50281 | GFP/RFP ratio change, % at 20 µM | GFP/RFP ratio fluorescence, overnight; percent of plate control window, DMSO zero;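 active = GFP/RFP ratio change of at least 30% with cell ATP level not reduced by more than half and red fluorescence within 50% of control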; also: strong numbers were not always called active
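Test system: HT1080 cells expressing an RFP-PRO-GFP fluorescent reporter construct / Compound dosing: single-point 20 µM compound, 1% DMSO / Schedule: cells overnight before dosing, compound overnight, 37 °C, 5% CO2 / Evaluation: GFP/RFP fluorescence ratio / Control set: DMSO and RFP-L50D-GFP cell wells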
eIF4H FP inh: human eIF4H binding inhibitors, primary screen, translation initiation inhibitor project, biochemical, uHTS, fluorescence polarization; Eukaryotic translation initiation factor 4H (Homo sapiens), Q15056; AID 2012, 2009; 290,000 tested, 0.94% active; inhibition, % at 35 µM; eIF4H fluorescence polarization binding assay;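 active = 50% or more with normal probe brightness, or confirmed in later tests; about a fifth of its hits are not listed in these tables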;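 also: calls also rest on retests at 20 µM and on dose response follow-up; 0% = protein and probe with vehicle and 100% = probe without protein; strong numbers were not always called active; many hits fall short of the cut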
CSC inhib: cancer stem cell viability inhibitors, primary screen, luminescence; cancer stem cell-like cells viability; inhibition, % at 7.5 µM; 300,000 tested, 1.1% active; AID 2717, 2010;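 active = mean at 75% or more and at least half the replicates too; tested in HMLE shEcad cells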;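 also: 0% = median of negative and 100% = median of positive control wells; the first replicate is given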
MT1-MMP act inh RFP: further read-out of MT1-MMP act inh, marked with its call; RFP signal change, %; measured here: RFP expression control read;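 0 = vehicle wells; hits needed this value within 50% of zero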
* = called active by the depositor; & = joins results of further samples. These rows are one share of the data, so the mix of outcomes need not match the whole.

`CC(C)(C)NC(=S)Nc1ccc(Nc2ccccc2)cc1` gave Rce1 inhib inactive, UUG fidelity -18.8, Env fusion inh 6.2, PABP FP inh -1.0, MT1-MMP act inh 17.1, eIF4H FP inh -5.9 and MT1-MMP act inh RFP 0.5.
`COc1ccc(C(=O)N/C(=C/c2ccc(Cl)cc2)C(=O)NCc2ccncc2)cc1` gave Rce1 inhib inactive, UUG fidelity -22.2, Env fusion inh 11.8, PABP FP inh -2.5, MT1-MMP act inh 4.6, eIF4H FP inh -7.8, CSC inhib 0.7 and MT1-MMP act inh RFP 0.4.
`Cc1cccc(N2CCN(C(=O)c3ccc4[nH]c(C)c(C)c4c3)CC2)c1C` gave UUG fidelity -32.4, MT1-MMP act inh -9.1, CSC inhib 61.7 and MT1-MMP act inh RFP -14.1.
Screening Cc1cc([N+](=O)[O-])nn1Cc1ccc(C(=O)N/N=C/c2ccc(N(C)C)cc2)cc1 returned Rce1 inhib inactive, Env fusion inh 24.7, PABP FP inh -8.5, MT1-MMP act inh 0.7, eIF4H FP inh -11.1, CSC inhib -10.4 and MT1-MMP act inh RFP -3.3.
For COc1ccc(CNC(=O)c2c(C)cc(=O)oc2C)cc1 the results were Rce1 inhib inactive, Env fusion inh -6.1, PABP FP inh 2.8, MT1-MMP act inh 2.8, eIF4H FP inh -1.6, CSC inhib -4.9 and MT1-MMP act inh RFP 1.7.
For COc1ccccc1C1CC(=O)Oc2cc(C)c(Br)c(C)c21 (stereo unspecified) the results were UUG fidelity -9.8, Env fusion inh -11.3, MT1-MMP act inh -1.1 and MT1-MMP act inh RFP 0.7.
`Cc1ccc(S(=O)(=O)NCCCNS(C)(=O)=O)cc1` gave Rce1 inhib inactive, UUG fidelity -21.1, PABP FP inh -5.7, MT1-MMP act inh 6.3, eIF4H FP inh 4.8, CSC inhib -2.3 and MT1-MMP act inh RFP 6.2.
For CS(=O)(=O)Nc1ccc2c3c(cccc13)CC2 the results were Rce1 inhib inactive, PABP FP inh 6.2, MT1-MMP act inh -3.6, eIF4H FP inh -5.9, CSC inhib -12.7 and MT1-MMP act inh RFP -0.4.
CC[C@@H](C)[C@@H]1CN([C@@H](C)CN2CCC[C@H]2CN2C(N)=NC[C@H]2CC(C)C)C(=N)N1CCCC1CCCC1 was read as UUG fidelity 19.3, Env fusion inh 13.7, MT1-MMP act inh 4.0 and MT1-MMP act inh RFP 8.0.
For CCCCNC(=O)C1(C)CCN1C(=O)c1ccc(C(F)(F)F)nc1C (stereo unspecified) the results were UUG fidelity -2.0, Env fusion inh 4.4, MT1-MMP act inh -4.0 and MT1-MMP act inh RFP -8.8.
Cc1cc(Cl)nc2ccc(Cc3ccc4nc(Cl)cc(C)c4c3)cc12 was read as Rce1 inhib inactive, Env fusion inh 13.0, PABP FP inh -2.7, MT1-MMP act inh 3.9, eIF4H FP inh -12.5, CSC inhib 35.5 and MT1-MMP act inh RFP -12.2.
`CCCCCN(C(=O)CCC(=O)OCc1cccc(Cl)c1)c1c(N)n(CCCC)c(=O)[nH]c1=O` gave Rce1 inhib inactive, UUG fidelity 5.7, Env fusion inh 10.5, MT1-MMP act inh -12.5, CSC inhib -5.3 and MT1-MMP act inh RFP -13.6.
`CCC(C)[C@H](NC(=O)N1CCC(Cc2ccccc2)CC1)C(=O)O` (stereo partly specified) gave Rce1 inhib inactive, UUG fidelity -8.4, Env fusion inh 6.9, PABP FP inh 0.7, MT1-MMP act inh 1.5, eIF4H FP inh -4.2, CSC inhib -10.6 and MT1-MMP act inh RFP 4.5.
For CCC(C)NCC(=O)Nc1ccc(S(N)(=O)=O)cc1 (stereo unspecified) the results were Rce1 inhib inactive, Env fusion inh 9.9, PABP FP inh 10.2, MT1-MMP act inh -1.1, eIF4H FP inh 0.7, CSC inhib 10.3 and MT1-MMP act inh RFP 2.8.
`CCC(=O)Nc1ccc(C(=O)CSc2nnc(-c3ccc(O)cc3)n2CC2CCCO2)cc1` (stereo unspecified) gave Rce1 inhib inactive, PABP FP inh 4.3, MT1-MMP act inh 2.6, eIF4H FP inh 3.0, CSC inhib -5.7 and MT1-MMP act inh RFP 0.5.
Cc1nn(C)c(C)c1/C=N/NC(=O)CCn1nc(C)c([N+](=O)[O-])c1C was read as Rce1 inhib inactive, UUG fidelity -38.6, Env fusion inh 1.7, PABP FP inh -7.0, MT1-MMP act inh 3.9, eIF4H FP inh -6.3, CSC inhib -10.1 and MT1-MMP act inh RFP 9.9.
For COc1ccccc1N(CC(=O)NCCSc1ccccc1)S(=O)(=O)c1ccccc1 the results were Rce1 inhib inactive, UUG fidelity -15.9, Env fusion inh 22.3, PABP FP inh -2.0, MT1-MMP act inh 2.9, eIF4H FP inh -4.1, CSC inhib 0.0 and MT1-MMP act inh RFP -5.7.
COC(=O)c1scc(C)c1N/N=C(\C)c1ccc(F)cc1 was read as Rce1 inhib inactive, UUG fidelity -17.3, Env fusion inh inactive, PABP FP inh 4.1, MT1-MMP act inh 3.1, eIF4H FP inh 3.1, CSC inhib -10.1 and MT1-MMP act inh RFP -3.6.
Screening O=C(CSc1nnc(NC(=O)c2ccccc2C(=O)O)s1)Nc1ccccc1Cl returned Rce1 inhib inactive, Env fusion inh 7.2, PABP FP inh 4.7, MT1-MMP act inh 0.3, eIF4H FP inh -1.5 and MT1-MMP act inh RFP 7.7.
Screening COc1ccc2nc(NC(=O)c3ccc(Br)s3)sc2c1 returned Rce1 inhib inactive, UUG fidelity -11.7, PABP FP inh 6.8, MT1-MMP act inh -3.7, eIF4H FP inh -2.9, CSC inhib -7.4 and MT1-MMP act inh RFP -8.8.
For FC(F)Oc1cccc(NC(=S)N2CCN(c3ccccn3)CC2)c1 the results were Rce1 inhib inactive, UUG fidelity -14.9, Env fusion inh 20.5, PABP FP inh 2.1, MT1-MMP act inh 2.0, eIF4H FP inh 2.9, CSC inhib 1.2 and MT1-MMP act inh RFP 3.8.
Nc1c(C(=O)Nc2ccccc2)sc2nc3c(c(-c4ccco4)c12)CCCC3 was read as Rce1 inhib inactive, UUG fidelity -15.7, PABP FP inh 15.3, MT1-MMP act inh -3.7, eIF4H FP inh 19.8, CSC inhib 10.1 and MT1-MMP act inh RFP -2.5.
For CCc1nnc(NC(=O)CSc2nnc(CNc3ccc(C)cc3)n2C)s1 the results were Rce1 inhib inactive, UUG fidelity -16.4, Env fusion inh -4.3, PABP FP inh 2.0, MT1-MMP act inh -2.6, eIF4H FP inh -9.6, CSC inhib -5.4 and MT1-MMP act inh RFP -2.1.
For O=C(Nc1cc(Cl)cc(Cl)c1)C(NCC1CCCO1)c1ccccc1 (stereo unspecified) the results were Rce1 inhib inactive, Env fusion inh 44.6, PABP FP inh -5.5, MT1-MMP act inh -0.9, eIF4H FP inh -7.7 and MT1-MMP act inh RFP -0.9.
Screening Cc1ccc(-n2nc3c(=O)n(C(C)C(=O)NCc4ccc5c(c4)OCO5)nc(C)c3c2C)cc1 (stereo unspecified) returned Rce1 inhib inactive, UUG fidelity -4.5, Env fusion inh 11.9, MT1-MMP act inh -3.7, CSC inhib -1.9 and MT1-MMP act inh RFP -26.9.
C[C@H](CO)N1C[C@H](C)[C@@H](CN(C)C(=O)Nc2ccc3c(c2)OCCO3)OCc2cnnn2CCCC1=O was read as UUG fidelity -7.9&-49.5, Env fusion inh -26.9, MT1-MMP act inh 0.7 and MT1-MMP act inh RFP 2.3.
Screening CS(=O)(=O)N1N=C(c2cccs2)CC1c1ccc(F)cc1 (stereo unspecified) returned Rce1 inhib inactive, UUG fidelity -14.9, Env fusion inh -19.5, PABP FP inh 3.4, MT1-MMP act inh -2.6, eIF4H FP inh 0.0, CSC inhib -6.8 and MT1-MMP act inh RFP 1.4.
For CCOC(=O)CN=C1CC(C)(C)CC2=C1Sc1ncnc(N(C)C)c1N2 the results were Rce1 inhib inactive, UUG fidelity -9.7, PABP FP inh 35.7, MT1-MMP act inh -20.9, eIF4H FP inh 7.0 and MT1-MMP act inh RFP 5.9.
For Cc1cc(Nc2ccc3c(c2)OCCO3)c2ccccc2n1 the results were Rce1 inhib inactive, PABP FP inh 12.1, MT1-MMP act inh 1.0, eIF4H FP inh 1.0, CSC inhib -1.9 and MT1-MMP act inh RFP 4.7.
For O=C(NC1CCCCC1)c1cc(S(=O)(=O)N2CCCCC2)ccc1N1CCOCC1 the results were UUG fidelity -19.1, Env fusion inh 21.2, MT1-MMP act inh -3.9 and MT1-MMP act inh RFP 1.1.
`COc1ccccc1C(=O)NNC(=O)CCC(=O)NCc1ccccc1` gave Rce1 inhib inactive, UUG fidelity -12.6, PABP FP inh -8.5, MT1-MMP act inh -1.4, eIF4H FP inh -8.1, CSC inhib -6.3 and MT1-MMP act inh RFP 4.1.
`OCc1cc(-c2ccccn2)no1` gave Rce1 inhib inactive, UUG fidelity -17.7, Env fusion inh -5.9, MT1-MMP act inh 7.6, CSC inhib 9.4 and MT1-MMP act inh RFP -0.3.
`Cc1nc2ccc(NC(=O)c3ccc(S(=O)(=O)N4CCOCC4)cc3)cc2s1` gave Rce1 inhib inactive, UUG fidelity -13.1, PABP FP inh 0.9, MT1-MMP act inh -7.3, eIF4H FP inh 1.4, CSC inhib -0.8 and MT1-MMP act inh RFP -26.6.
Screening COc1ccc(Cc2noc(=O)[nH]2)cc1 returned UUG fidelity -13.4, Env fusion inh -32.2, MT1-MMP act inh -0.3 and MT1-MMP act inh RFP 4.9.
Cc1nnc(NS(=O)(=O)c2ccc(Br)cc2)s1 was read as Rce1 inhib inactive, UUG fidelity -25.3, Env fusion inh 1.5, PABP FP inh 5.1, MT1-MMP act inh -3.8, eIF4H FP inh -4.9, CSC inhib -10.5 and MT1-MMP act inh RFP -1.0.
Cc1ccnc(SCC(=O)NC2CC2)n1 was read as Rce1 inhib inactive, UUG fidelity -16.2, Env fusion inh 0.1, PABP FP inh -10.0, MT1-MMP act inh 2.0, eIF4H FP inh -5.9, CSC inhib 4.3 and MT1-MMP act inh RFP 5.7.
Screening Cc1ccc(S(=O)(=O)N2C(=O)c3cccc4cccc2c34)cc1 returned Rce1 inhib inactive, UUG fidelity -14.8, Env fusion inh 7.0, PABP FP inh 6.3, MT1-MMP act inh -1.4, eIF4H FP inh 7.7, CSC inhib 51.6 and MT1-MMP act inh RFP 2.5.
For Cn1cccc1C(=S)N1CCOCC1 the results were Rce1 inhib inactive, UUG fidelity -26.5, PABP FP inh -3.7, MT1-MMP act inh 2.1, eIF4H FP inh -2.3, CSC inhib -6.4 and MT1-MMP act inh RFP 5.4.
`O=C(NC(=S)Nc1ccccc1)c1cncc(C#Cc2ccccc2)c1` gave Env fusion inh 2.0, PABP FP inh -2.0, MT1-MMP act inh 0.6, eIF4H FP inh -5.4, CSC inhib 13.1 and MT1-MMP act inh RFP 3.7.
Cc1[nH]c2ccc(Br)cc2c(=S)c1C/C=C/Cl was read as Rce1 inhib inactive, UUG fidelity -6.3, Env fusion inh 12.0, PABP FP inh 7.2, MT1-MMP act inh -1.6, eIF4H FP inh 1.3, CSC inhib -17.4 and MT1-MMP act inh RFP 0.2.

2 compounds picked at random from those above:
Nc1c(C(=O)Nc2ccccc2)sc2nc3c(c(-c4ccco4)c12)CCCC3 was read as Rce1 inhib inactive, UUG fidelity -15.7, PABP FP inh 15.3, MT1-MMP act inh -3.7, eIF4H FP inh 19.8, CSC inhib 10.1 and MT1-MMP act inh RFP -2.5.
`Cc1nc2ccc(NC(=O)c3ccc(S(=O)(=O)N4CCOCC4)cc3)cc2s1` gave Rce1 inhib inactive, UUG fidelity -13.1, PABP FP inh 0.9, MT1-MMP act inh -7.3, eIF4H FP inh 1.4, CSC inhib -0.8 and MT1-MMP act inh RFP -26.6.
